VACV mCherry inh: inhibitors of vaccinia virus infection (mCherry reporter signal); Vaccinia virus mCherry reporter infection, fluorescence; about a quarter of the inactives have no number; Potency, µM (series often up to 36.5 µM), for the others: top-dose activity change, negative = inhibition, hits mostly inhibitors; hit rate 0.63% among 310,000; AID 720579; active = well fitted inhibition curve with a large enough effect; inconclusive = small, poorly fitted or top-dose-only effect; inactive = no such curve, though single readings can be large or run the other way; tested in A549 cells; further: nearly all actives have a fitted effect of over 35% in size; inactives centre near -10
Vaccinia Venus: inhibitors of vaccinia virus (Venus reporter). Vaccinia virus Venus reporter expression, fluorescence. Potency, µM (doses to about 36.5 µM), for the others: top-dose activity change, negative = inhibition, usual class: inhibitors. hit rate 0.46% among 330,000; active means well fitted inhibition curve with a large enough effect; inconclusive means small, poorly fitted or top-dose-only effect; inactive means no such curve, though single readings can be large or run the other way; tested in A549 cells; further: nearly all actives have a fitted effect of over 30% in size; inactives centre near -10
The depositor's hits bear a star; i = inactive; ? = inconclusive; . = no result given; [ ] = dose if it differs, or a comment. On the % scale 0 is the no-effect control and ±100 the full control effect; potency means the concentration at half of the fitted maximal effect.

canonical_smiles	Vaccinia Venus	VACV mCherry inh
CC12CN3CC(c4ccccc4)(CN(C1)C3c1ccc(Cl)cc1)C2=O (configuration not stated)	-8%	-3%
Cc1ccc(C(=O)N(CC(=O)NC2CCCC2)c2ccccc2C)s1	-11%	i
Cc1cccc(C)c1N1C(=O)c2ccccc2NC(=O)C1C(=O)NCC(C)C (configuration not stated)	-8%	-12%
CCC(C)(C(=O)NC1CCCCC1)N(Cc1ccco1)C(=O)CC1NC(=O)NC1=O (configuration not stated)	-1%	-7%
O=C(COc1ccccc1)Nc1ccccc1C(=O)NC1CC1	-6%	i
CCSc1ncc(Cl)c(C(=O)Nc2ccc(S(N)(=O)=O)cc2)n1	-21%	-15%
O=C(CSc1nnc(-c2ccncc2)n1-c1ccccc1Cl)Nc1ccc(C(=O)O)cc1	-9%	i
CC1(C)C(=O)Nc2ccccc2N1C(=O)CN1C(=O)C(=O)N(C2CCCC2)C1=O	-17%	-4%
O=C(c1cc2cc3ccc(Cl)cc3nc2o1)N1CCN(Cc2ccc3c(c2)OCO3)CC1	-2%	1%
CC(C)CCNC(=O)NC(=O)COC(=O)/C=C/c1cccc([N+](=O)[O-])c1	-13%	-2%
c1ccc2[nH]c(SCc3cscn3)nc2c1	-12%	-21%
CN1C(=S)NC(C)(C)CC1(C)c1ccc(O)cc1O (configuration not stated)	-3%	-7%
Cc1ccc(N2C(N)=C(C#N)C(c3cccnc3)C3=C2CC(C)(C)CC3=O)cc1 (configuration not stated)	-35%	.
COc1ccc(CN(C)CC(O)COC(c2ccccc2)c2ccccc2)c(OC)c1OC (configuration not stated)	-8%	?
Cc1ccc(C(=O)OCc2nnc(-c3ccccc3)o2)s1	-4%	-20%
Cc1c(N2C(=O)/C(=C\c3cccc4ccccc34)SC2=S)c(=O)n(-c2ccccc2)n1C	-20%	-23%
COc1ccc(C2=Nc3ccc(Br)cc3C(c3ccccc3)N2CC(=O)NN)cc1 (configuration not stated)	-3%	-20%
CCC(CC)NC(=O)CSc1nnc(-c2c[nH]c3ccccc23)o1	-19%	i
CCOc1cc(C2C(C(=O)N3CCOCC3)=C(C)NC3=C2C(=O)CCC3)ccc1O (configuration not stated)	-1%	-15%
Cc1ccc(S(=O)(=O)N(C)C)cc1NC(=O)C1Cc2ccccc2CN1C(=O)c1ccco1 (configuration not stated)	-9%	i
CCOc1ccccc1CNCCSc1nnnn1C	11%	13%
Cc1nc2ccccn2c1C(=O)NNC(=S)Nc1ccc(Cl)cc1	-11%	-19%
Cc1oc(C)c2c(=O)ccc3c(c12)OC(N)=C(C#N)C3c1ccc(F)cc1 (configuration not stated)	19%	8%
Cc1cc(=O)n2nc(N3CCC(C(=O)Nc4ccc(C(C)C)cc4)CC3)sc2n1	-17%	21%
CCNC(=O)COC(=O)/C=C/c1c(C)nn(Cc2cccc(OC)c2)c1Cl	-2%	-15%
O=C(NC(=S)Nc1ccccc1)c1cc(-c2ccccc2)nc2ccccc12	-19%	?
Cc1ccccc1NC(=O)c1c(C)nn(-c2ccccc2)c1Cl	-13%	-16%
CC(=O)c1ccccc1NS(=O)(=O)c1ccccc1Cl	-14%	-1%
CC(C)N1C[C@@H](NCc2ccccc2O)C[C@H]1C(=O)N1CCN(c2cccc(C(F)(F)F)c2)CC1	-4%	i
COc1ccc2sc3c(=O)[nH]c4ccccc4c3c2c1	?	.
CN(C)C(=O)CCc1ccc2c3c([nH]c2c1)[C@]1(CCC2CCCC2)[C@@H](C(=O)N2CCOCC2)C[C@H](CC(=O)NCCc2ccccn2)C(=O)N1CC3	-2%	-9%
COc1ccccc1-n1c(C)nc2cc(C(=O)NCC3CCCO3)ccc21 (configuration not stated)	-6%	-16%
COc1cccc(C(c2sc3nc(-c4ccco4)nn3c2O)N2CCC(C)CC2)c1 (configuration not stated)	1%	1%
O=C1c2ccccc2C(=O)C1(CO)c1ccccc1	-5%	0%
NC(=O)C1CCN(S(=O)(=O)c2cccc(C(=O)O)c2)CC1	-2%	-13%
CCCC[C@@H]1C[C@H]1[C@@H](NC(=O)c1ccco1)c1ccccc1C(F)(F)F	-13%	i
Cc1ccc(-n2nc3c(c2NC(=O)CC(C)C)CS(=O)C3)cc1 (configuration not stated)	9%	i
COc1ccccc1CCC(=O)OCC(=O)Nc1cc(S(=O)(=O)N2CCOCC2)ccc1C	-2%	-15%
CC/C(=C/c1ccccc1)c1cc(Oc2ccccc2)cc2oc3ccccc3c12	-11%	i
CCc1c(C)c2ccc(O)c(CN3CCN(c4cc(Cl)ccc4C)CC3)c2oc1=O	-4%	-5%
COc1ccccc1CNC(=O)C1CCN(S(=O)(=O)c2ccc3c(c2)OCCCO3)CC1	-12%	0%
O=C(NC1CCS(=O)(=O)C1)c1cn(-c2ccccc2)nc1-c1ccccc1 (configuration not stated)	-8%	-17%
COc1ccc(C(=O)N2CCNC(=O)C2CC(=O)Nc2cc(Cl)ccc2OC)cc1 (configuration not stated)	-8%	i
COc1ccc(CC(=O)Nc2ccc3nc(Nc4cccc(Cl)c4)cc(C)c3c2)cc1OC	-29%	-25%
CCc1cc2c(Nc3ccccc3O)nc(C)nc2s1	-9%	-1%
O=[N+]([O-])c1ccc(C(O)CN2CCOCC2)cc1 (configuration not stated)	-4%	12%
COc1ccc(-c2oc3c(c2C(=O)OCCO)C(OCCO)CCC3)cc1 (configuration not stated)	-9%	-4%
COc1ccc(Br)cc1CN(C)CC(=O)NCc1ccc(F)cc1	-13%	-11%
Clc1cccc(-n2ncc3c(Nc4ccc5c(c4)OCCO5)ncnc32)c1	-8%	-25%
Cc1[nH]c(=O)[nH]c(=O)c1NC(=O)c1ccc(OC(C)C)cc1	-4%	-6%
COc1ccc(CCNC(=O)COC(=O)CSc2ccc([N+](=O)[O-])cc2)cc1OC	-7%	-9%
OC[C@@H]1CN(Cc2ccccc2)C[C@H](n2ccc3c(N4CCCC4)ncnc32)O1	-1%	-6%
COc1cc(NS(=O)(=O)c2ccc(C)cc2)c2c(c1N)C(=O)c1ccccc1C2=O	398%[activator]	64%[activator]
COc1ccc(-c2noc(CN3CCOCC3)n2)cc1OC	-8%	.
COc1ccc(C2C=C(c3ccc(Cl)cc3)Nc3nc(-c4ccc(Cl)cc4)nn32)cc1 (configuration not stated)	?	?
CC(=O)Oc1c(S(=O)(=O)c2ccc(C)cc2)c(C)nn1C(C)(C)C	?	?

More structures follow:
canonical_smiles	Vaccinia Venus	VACV mCherry inh
CCc1nc2ccc(C(=O)NCCC(C)C)cn2c1N(CC)CCOC	-8%	i
O=C(Nc1ccccc1)c1cc(Cl)nc2ccccc12	-9%	-1%
Cn1c(=O)c(C(=O)NC2CCCCCCC2)c(O)c2ccccc21	-7%	-14%
COc1c(NC=O)c2c(c([N+](=O)[O-])c1OC)C(=O)OC2	-9%	i
Cc1ccc(S(=O)(=O)N2C[C@@H]3[C@H]4CC[C@H](C4)[C@@H]3[C@@H](C)[C@@H]2c2cn(Cc3ccccc3)c3ncccc23)cc1	-24%	i
CCOC(=O)c1c(/N=C/C2=C(O)CC(C)(C)CC2=O)sc2c1CCCC2	4%	-14%
COc1ccc(NC(=O)Cn2nnnc2-c2ccccc2F)c(C)c1	-8%	-4%
C=C(C)Cn1c(SCC(=O)N/N=C/c2c(O)ccc3ccccc23)nc2ccccc2c1=O	-5%	i
CC1=C(C(=O)OC2CCCCC2)C(c2cccnc2)n2nnnc2N1 (configuration not stated)	?	-17%
Cc1cccc(C)c1NC(=O)c1cnn(-c2ccccc2)c1C	-10%	-12%
CCc1nc2cccnc2n1-c1ccc(CC(=O)Nc2cccc(C)c2C)cc1	-9%[7.34 µM]	-9%[7.34 µM]
O=C(Cc1c(F)cccc1Cl)Nc1cc(S(=O)(=O)N2CCCCC2)ccc1N1CCOCC1	-15%	-6%
Cc1ccc(Cl)cc1N1CCN(C(=O)c2cc3ccc4cccnc4c3[nH]2)CC1	-3%	-6%
CCN(CC)N=Nc1ccc(C(=O)O)cc1	-17%	-10%
CSc1nn(CC(=O)Nc2cc(C)ccc2C)c(N)c1S(=O)(=O)c1ccccc1	-15%	-6%
Cc1cccc(OCCCC(=O)NC2CCCCC2)c1	-11%	-12%
Cc1ccc(C2c3c(-c4ccccc4O)n[nH]c3C(=O)N2CCc2ccccc2)cc1 (configuration not stated)	-9%[7.34 µM]	-9%[7.34 µM]
Cc1cc(NC(=O)c2ccc(C(C)(C)C)cc2)no1	-14%	6%
COC(=O)c1ccc(C(=O)OC)c(NC(=O)COC(=O)c2ccccc2OC)c1	-8%	i
Cc1cc2c(cn1)C(CCC#N)(CCC#N)c1ccccc1-2	-17%	-17%
C=CCSc1nc2c(sc3nc(C)cc(C)c32)c(=O)[nH]1	-4%	-3%
Cc1cc(C)c(S(=O)(=O)N2CCCCC2CCNC(=O)C(=O)NCCN2CCOCC2)c(C)c1 (configuration not stated)	-12%	-23%
Cc1cc([N+](=O)[O-])ccc1P(=O)(O)c1ccc([N+](=O)[O-])cc1C	-9%	i
COc1ccc(C2C(C(=O)c3sc(C)nc3C)=C(O)C(=O)N2CCN2CCOCC2)cc1 (configuration not stated)	-2%	.
Cc1cc(C)c(S(=O)(=O)Nc2cc(SCC(=O)O)c(O)c3ccccc23)cc1C	-1%	-1%
COc1ccc(CN(C(=O)CNC(=O)c2ccco2)C(C(=O)NC2CCCC2)c2ccco2)cc1 (configuration not stated)	-13%	-18%
COc1ccccc1N(CC(=O)Nc1cccc(C(F)(F)F)c1)S(C)(=O)=O	-7%	-25%
OC[C@@H]1CN(CCc2ccccc2)C[C@H](n2cnc3c(N4CCOCC4)ncnc32)O1	1%	1%
Cc1ccc(NC2=Nc3ccccc3CC2)cc1	-18%	.
Cc1ccc2c(=O)c(C(=O)c3ccc(F)cc3)cn(CC(=O)Nc3ccc4c(c3)OCCO4)c2n1	-9%	-5%
Cc1cccc([C@@H]2[C@@H]3C(=O)N(C)C(=O)[C@@H]3[C@@H]3C(=O)Nc4ccccc4C(=O)N23)c1	-15%	-20%
Cn1cnc(C(=O)NCc2ccc(CNC(=O)OC(C)(C)C)cc2)c1C(=O)NCc1ccc(CNC(=O)OC(C)(C)C)cc1	?	?

One compound at a time, from the list above. Screens in order: Vaccinia Venus, VACV mCherry inh
Entry for `Cn1cnc(C(=O)NCc2ccc(CNC(=O)OC(C)(C)C)cc2)c1C(=O)NCc1ccc(CNC(=O)OC(C)(C)C)cc1` = ?, ?
Entry for `COc1ccc(CN(C(=O)CNC(=O)c2ccco2)C(C(=O)NC2CCCC2)c2ccco2)cc1` (configuration not stated) = -13%, -18%
Entry for `Cc1ccc2c(=O)c(C(=O)c3ccc(F)cc3)cn(CC(=O)Nc3ccc4c(c3)OCCO4)c2n1` = -9%, -5%
Entry for `OC[C@@H]1CN(CCc2ccccc2)C[C@H](n2cnc3c(N4CCOCC4)ncnc32)O1` = 1%, 1%
Entry for `Cc1cc(C)c(S(=O)(=O)Nc2cc(SCC(=O)O)c(O)c3ccccc23)cc1C` = -1%, -1%

Other structures follow:
canonical_smiles	Vaccinia Venus	VACV mCherry inh
Cc1cccc2c(N=Nc3ccccc3)c(O)[nH]c12	-9%	-15%
Cc1ccc2c(CC(=O)OCn3nnc4ccccc4c3=O)coc2c1	-6%	-13%
C#CCOc1ccc(C2C3=C(COC3=O)Nc3cc4c(cc32)OCO4)cc1OC (configuration not stated)	?	?
Cc1ccc(-c2cc(C(=O)Nc3ccc(S(=O)(=O)Nc4onc(C)c4C)cc3)[nH]n2)c(O)c1	-17%	-5%
NCCCC[C@@H]1NC(=O)c2cc([N+](=O)[O-])cc(I)c2SC[C@@H](C(N)=O)NC(=O)[C@H](CCC(N)=O)NC1=O	-11%	i
COC(=O)C1=C(C)Nc2c(c(=O)n(C)c(=O)n2C)C1c1ccc(C)cc1 (configuration not stated)	-5%	-11%
CN(C)CCCNC(=S)N1CCC(C(=O)c2ccc(Cl)cc2)CC1	-9%	0%
CCCCN(CC)Cc1ccc(CNC(=S)Nc2ccccc2F)o1	-12%	?
COc1ccccc1N1C(=O)CC(c2ccccc2)CC1=O	-11%	i
O=C1CSC2(C(=O)N(Cc3cccc(F)c3)c3ccccc32)N1c1cccc(C(F)(F)F)c1 (configuration not stated)	-3%	-7%
COCCOC(=O)C(C#N)c1nc2ccccc2nc1N1CCN(Cc2ccccc2)CC1 (configuration not stated)	-19%	.
CN(Cc1ccccc1)S(=O)(=O)c1ccc2[nH]c3c(c2c1)CCCCC3	1%	-11%
CC1(C)CC(=O)C2=C(C1)NC(Nc1nc3ccccc3o1)=NC2c1ccccn1 (configuration not stated)	-9%	i
CCOC(=O)N1CCN(Cc2nc(C3CC3)no2)CC1	-1%	i
Cc1cc(/C=N/NC(N)=S)c(C)n1-c1ccc(Cl)c(Cl)c1	?	?
CCC(=O)N1CCc2cc(S(=O)(=O)CCC(=O)N3CCN(c4cc(C)ccc4C)CC3)ccc21	-2%	-2%
CCn1ccnc1CN(C)Cc1cn(-c2ccccc2)nc1-c1ccc(OC)cc1F	-6%	-15%
COc1ccc(NC(=O)CSc2nc3ccccc3cc2Cc2ccccc2)cc1	-14%	-6%
COC(=O)C1CC(=O)c2sccc2C1 (configuration not stated)	-3%	-4%
O=C(O)C(Cc1ccccc1)N1Cc2ccccc2C1=O (configuration not stated)	-1%	-12%
